Screens deposited in PubChem BioAssay by Broad Institute.
UUG fidelity: alters start codon recognition fidelity in yeast. S. cerevisiae UUG-firefly luciferase reporter, luminescence/redox ratio. 350,000 tested, 0.13% active. AID 602363. activity score, % at 18.7 µM;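 active = replicate mean at a twofold rise or more, about +100% in these data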;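 also: firefly luciferase made from a UUG start codon reports start codon fidelity; reporter light over untreated wells divided by growth signal over untreated wells; some hits fall short of that in this replicate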
Numbers without * were called inactive. The list is partial (hit frequency here may not be typical).

UUG fidelity	Compound
7.6	O=C(C[C@@H]1CC[C@@H]2[C@H](COC[C@H](O)CN2C(=O)c2ccccc2F)O1)NCc1ccc(Cl)cc1
7.8	O=C(C[C@H]1CC[C@H]2[C@@H](COC[C@H](O)CN2C(=O)Nc2ccc(Cl)c(Cl)c2)O1)NCc1ccc(F)cc1
-4.7	CC(=O)N1CCCCN2[C@H](C1)[C@H](c1ccc(-c3ccc(C)cc3)cc1)[C@@H]2CO
6.1	CC(C)NC(=O)Nc1ccc2c(c1)C(=O)N([C@H](C)CO)C[C@@H](C)[C@@H](CN(C)Cc1ccc(C(F)(F)F)cc1)O2
-6.6	COc1ccc(CN(C)C[C@H]2Oc3ccc(NS(C)(=O)=O)cc3C(=O)N([C@H](C)CO)C[C@@H]2C)cc1
-3.6	C[C@H](CO)N1C[C@H](C)[C@@H](CN(C)C(=O)Nc2ccc3c(c2)OCO3)Oc2ccc(NC(=O)c3ccncc3)cc2C1=O
-8.3	COCC(=O)N1C[C@H](C)[C@H](OC)CN(C)C(=O)c2ccc(NC(=O)C3CCC3)cc2OC[C@@H]1C
1.7	C[C@@H]1CN([C@@H](C)CO)C(=O)c2cc(NC(=O)C3CC3)ccc2O[C@H]1CN(C)S(=O)(=O)c1ccc(Cl)cc1
37.9	C[C@H](CO)N1C[C@H](C)[C@H](CN(C)C(=O)Nc2ccc(C(F)(F)F)cc2)Oc2ccc(N(C)C)cc2C1=O
-1.7	C/C=C/c1ccc([C@@H]2[C@@H](CNC(=O)CC)N(C(=O)CC)[C@H]2CO)cc1
61.2	C[C@@H]1CN([C@@H](C)CO)C(=O)c2cc(C#CC3CCCCC3)cnc2O[C@@H]1CN(C)C(=O)C1CCCCC1
9.4	C[C@@H]1CN([C@@H](C)CO)C(=O)c2cc(NS(=O)(=O)c3cn(C)cn3)ccc2O[C@@H]1CN(C)C(=O)Nc1cccc2ccccc12
-16.0	Cc1ccc(S(=O)(=O)N2CC[C@H]3[C@@H](CO)N(C)c4ccc(-c5ccc(C#N)cc5)cc4[C@H]32)cc1
-8.8	CC(C)NC(=O)N1C[C@H]2[C@@H](c3ccccc31)[C@@H](CO)N2C(=O)c1ccncc1
-8.7	Cc1cccc(S(=O)(=O)N2C[C@H](O)COC[C@H]3O[C@@H](CC(=O)NCCCN4CCOCC4)CC[C@@H]32)c1
8.7	Cc1ccccc1-c1ccc([C@H]2[C@H](CO)N3CCCCN(C(=O)Nc4cccc(F)c4)C[C@@H]23)cc1
-10.9	O=C(c1ccncc1)N1CCCCN2[C@@H](CO)[C@@H](c3ccc(-c4ccccc4)cc3)[C@@H]2C1
23.1	CO[C@@H]1CN(C)C(=O)c2ccc(NC(=O)Cc3ccccc3)cc2OC[C@H](C)N(C(C)=O)C[C@@H]1C
4.2	C[C@@H]1CN([C@@H](C)CO)C(=O)Cc2cc(NS(=O)(=O)c3ccccc3)ccc2O[C@H]1CN(C)C
-10.1	C[C@@H]1CN([C@H](C)CO)C(=O)c2cccc(NC(=O)Nc3cccc4ccccc34)c2O[C@H]1CN(C)S(=O)(=O)c1cccs1

Continued; the last 7 above are carried over.
UUG fidelity	Compound
-8.8	CC(C)NC(=O)N1C[C@H]2[C@@H](c3ccccc31)[C@@H](CO)N2C(=O)c1ccncc1
-8.7	Cc1cccc(S(=O)(=O)N2C[C@H](O)COC[C@H]3O[C@@H](CC(=O)NCCCN4CCOCC4)CC[C@@H]32)c1
8.7	Cc1ccccc1-c1ccc([C@H]2[C@H](CO)N3CCCCN(C(=O)Nc4cccc(F)c4)C[C@@H]23)cc1
-10.9	O=C(c1ccncc1)N1CCCCN2[C@@H](CO)[C@@H](c3ccc(-c4ccccc4)cc3)[C@@H]2C1
23.1	CO[C@@H]1CN(C)C(=O)c2ccc(NC(=O)Cc3ccccc3)cc2OC[C@H](C)N(C(C)=O)C[C@@H]1C
4.2	C[C@@H]1CN([C@@H](C)CO)C(=O)Cc2cc(NS(=O)(=O)c3ccccc3)ccc2O[C@H]1CN(C)C
-10.1	C[C@@H]1CN([C@H](C)CO)C(=O)c2cccc(NC(=O)Nc3cccc4ccccc34)c2O[C@H]1CN(C)S(=O)(=O)c1cccs1
-2.8	COc1cccc(NC(=O)N2[C@H](CNC(C)C)[C@H](c3ccccc3)[C@@H]2CO)c1
1.9	CCC(=O)Nc1ccc2c(c1)OC[C@@H](C)N(Cc1ccccc1OC)C[C@@H](C)[C@@H](OC)CN(C)C2=O
-7.0	O=C(C1CCC1)N1CCCCN2[C@@H](CO)[C@@H](c3ccc(-c4ccncc4)cc3)[C@@H]2C1
-3.4	OC[C@H]1[C@H](c2ccc(-c3ccccc3F)cc2)[C@@H]2CN(Cc3ccncc3)CCCCN12
42.9	CC=Cc1ccc2n(c1=O)C[C@@H]1[C@@H](CO)[C@H](C(=O)NCC(F)(F)F)[C@H]2N1C(=O)C1CC1 (mixture of isomers)
133.8*	CCCC(=O)Nc1ccc2c(c1)C(=O)N(C)C[C@@H](OC)[C@H](C)CN(S(=O)(=O)c1cn(C)cn1)[C@@H](C)CO2
8.5	C[C@H]1CN([C@@H](C)CO)C(=O)CCCn2cc(nn2)CO[C@@H]1CN(C)CC1CCCC1
18.5	CN1c2ccc(Br)cc2[C@H]2[C@H](CCN2C(=O)CN2CCOCC2)[C@@H]1CO
9.3	Cc1ccccc1S(=O)(=O)N1C[C@@H](O)COC[C@H]2O[C@@H](CC(=O)N3CCCCC3)CC[C@@H]21
-19.1	OC[C@@H]1[C@H](c2ccc(-c3ccncc3)cc2)[C@@H]2CN(Cc3ccccn3)CCCCN12
-2.1	CN1C(=O)c2cc(NC(=O)c3cccc(F)c3)ccc2OC[C@@H]2O[C@@H](CC(=O)Nc3ccccc3)CC[C@H]21
-8.4	N#Cc1cccc(-c2ccc([C@@H]3[C@H]4CN(C(=O)Nc5ccccc5)CCCCN4[C@H]3CO)cc2)c1
3.7	C[C@@H]1CN([C@@H](C)CO)C(=O)CCCn2cc(nn2)CO[C@@H]1CN(C)S(=O)(=O)c1ccc(-c2ccccc2)cc1
10.2	CC(C)NC(=O)N1C[C@H]2[C@@H](c3ccccc31)[C@@H](CO)N2C(=O)Nc1ccc(F)cc1
-10.8	CN1C(=O)c2cc(NC(=O)c3cccc(F)c3)ccc2OC[C@@H]2O[C@@H](CC(=O)NCc3ccccc3Cl)CC[C@H]21
1.5	C[C@@H]1CN([C@@H](C)CO)C(=O)Cc2cc(NC(=O)c3ccncc3)ccc2O[C@H]1CN(C)C(=O)Nc1ccccc1
-2.0	CO[C@H]1CN(C)C(=O)c2cc(NC(=O)c3cccc(F)c3)ccc2OC[C@@H](C)N(CC2CC2)C[C@@H]1C
3.4	CO[C@H]1CN(C)C(=O)c2ccc(NC(=O)c3ccccc3)cc2OC[C@H](C)N(C(C)=O)C[C@H]1C
2.9	Cc1ccccc1S(=O)(=O)N1CCCCN2[C@H](C1)[C@H](c1ccc(-c3cncnc3)cc1)[C@@H]2CO
-12.6	OC[C@@H]1[C@H](c2ccc(Br)cc2)[C@H]2CNCCCCN12

UUG fidelity	Compound
0.5	CNC[C@@H]1Oc2ccc(NC(=O)NC3CCCCC3)cc2C(=O)N([C@H](C)CO)C[C@H]1C
17.0	Cc1ccc(S(=O)(=O)Nc2ccc3c(c2)CC(=O)N([C@@H](C)CO)C[C@@H](C)[C@@H](CN(C)C(=O)NC(C)C)O3)cc1
-2.2	COc1ccc(CN(C)C[C@H]2Oc3c(NC(=O)Nc4ccc(F)cc4)cccc3C(=O)N([C@@H](C)CO)C[C@H]2C)cc1
0.0	CC(C)NC(=O)N(C)C[C@H]1Oc2ccc(NC(=O)CCCN(C)C)cc2C(=O)N([C@@H](C)CO)C[C@H]1C
1.0	C[C@@H]1CN([C@H](C)CO)C(=O)c2cccc(NC(=O)C3CC3)c2O[C@@H]1CN(C)Cc1ccccc1
4.4	COc1ccc(S(=O)(=O)N(C)C[C@H]2Oc3c(NC(=O)c4cnccn4)cccc3C(=O)N([C@H](C)CO)C[C@H]2C)cc1
1.5	C[C@H]1CN([C@@H](C)CO)C(=O)c2cccc(NS(=O)(=O)c3cn(C)cn3)c2O[C@@H]1CN(C)Cc1ccc(-c2ccccc2)cc1
2.2	Cc1noc(C)c1NC(=O)Nc1ccc2c(c1)CC(=O)N([C@H](C)CO)C[C@@H](C)[C@H](CN(C)Cc1ccc(Cl)c(Cl)c1)O2
5.0	C[C@H]1CN([C@@H](C)CO)C(=O)c2cc(NC(=O)C3CCCCC3)ccc2O[C@@H]1CN(C)Cc1ccc(-c2ccccc2)cc1
21.3	C[C@H]1CN([C@@H](C)CO)C(=O)c2c(c3ccccc3n2C)-c2ccccc2CO[C@@H]1CN(C)C(=O)Nc1cccc(F)c1
-3.3	COc1ccc(S(=O)(=O)Nc2cccc3c2O[C@@H](CN(C)CC2CC2)[C@H](C)CN([C@@H](C)CO)C3=O)cc1
-14.5	CN1c2ccc(-c3ccccc3)cc2[C@@H]2[C@@H](CCN2C(=O)c2ccncc2)[C@H]1CO
-1.9	CN1c2ccc(C#Cc3cccnc3)cc2[C@H]2[C@H](CCN2S(=O)(=O)c2ccccc2F)[C@@H]1CO
-0.8	C[C@H](CO)N1C[C@H](C)[C@H](CN(C)C)Oc2c(NC(=O)c3ccc(-c4nccs4)cc3)cccc2C1=O
-18.9	COc1ccccc1CN1CC[C@@H]2[C@H]1c1cc(-c3cccc(F)c3)ccc1N[C@@H]2CO
1.4	CC(C)NC(=O)Nc1ccc2c(c1)C(=O)N([C@H](C)CO)C[C@H](C)[C@H](CN(C)C(=O)NC(C)C)O2
-12.2	COC(=O)C[C@@H]1C[C@@H]2c3cc(NC(=O)Nc4ccccc4F)ccc3O[C@@H]2[C@H](CO)O1
1.4	C[C@@H]1CN([C@H](C)CO)C(=O)c2ccccc2-c2ccccc2CO[C@@H]1CN(C)S(=O)(=O)c1ccc(C#N)cc1
0.4	COc1ccc(CN(C)C[C@H]2Oc3ccc(NC(=O)Nc4ccc(F)cc4)cc3CC(=O)N([C@@H](C)CO)C[C@H]2C)cc1
-7.3	O=C(c1cccc(F)c1)N1C[C@@H]2[C@H](c3ccccc31)[C@@H](CO)N2C(=O)C1CCCC1

UUG fidelity	Compound
20.3	COc1ccccc1NC(=O)N(C)C[C@@H]1OCc2ccccc2-c2c(n(C)c3ccccc23)C(=O)N([C@H](C)CO)C[C@H]1C
2.3	CCN(C[C@H]1N[C@H](CO)[C@H]1c1ccc(-c2ccccc2)cc1)C(=O)COC
-0.6	C[C@H]1CN([C@@H](C)CO)C(=O)CCCn2nncc2CO[C@H]1CN(C)C(=O)Nc1cccc(F)c1
2.8	COCC(=O)Nc1ccc2c(c1)OC[C@@H](C)N(CC1CCCCC1)C[C@H](C)[C@H](OC)CN(C)C2=O
8.0	C[C@@H]1CN([C@@H](C)CO)C(=O)Cc2cc(NC(=O)Cc3ccccc3)ccc2O[C@@H]1CN(C)S(=O)(=O)c1ccc(F)cc1
7.2	C[C@H]1CN([C@@H](C)CO)C(=O)c2cccc(NC(=O)c3nc4ccccc4s3)c2O[C@H]1CN(C)Cc1ccc(C(F)(F)F)cc1
4.3	C[C@H]1CN([C@@H](C)CO)C(=O)c2cccc(NC(=O)Nc3ccc(F)cc3)c2O[C@@H]1CN(C)C
0.0	C[C@@H]1CN([C@@H](C)CO)C(=O)c2cccc(NC(=O)NC3CCCCC3)c2O[C@@H]1CN(C)S(=O)(=O)c1cn(C)cn1
-14.7	CN1CCN(C(=O)C[C@H]2C[C@H]3c4cc(NC(=O)CC5CC5)ccc4O[C@H]3[C@H](CO)O2)CC1
-4.4	C[C@@H]1CN([C@H](C)CO)C(=O)c2cc(NC(=O)Nc3ccc4c(c3)OCO4)ccc2O[C@H]1CN(C)C(=O)Nc1cccc2ccccc12
-5.8	O=C(Cc1cccnc1)N1[C@@H]2CNc3ccccc3[C@@H]2[C@@H]1CO
-8.4	Cc1noc(C)c1NC(=O)N(C)C[C@@H]1Oc2ccc(NS(=O)(=O)c3cn(C)cn3)cc2C(=O)N([C@@H](C)CO)C[C@H]1C
11.5	C[C@@H]1CN([C@@H](C)CO)C(=O)c2cc(NC(=O)Nc3ccc(C(F)(F)F)cc3)ccc2O[C@H]1CN(C)C(=O)NC1CCCCC1
-4.1	C/C=C/c1ccc([C@@H]2[C@@H](CNC(=O)C3CC3)N(C(=O)NCCC)[C@H]2CO)cc1
-12.5	CO[C@@H]1CN(C)C(=O)c2ccc(NC(=O)C3CCCCC3)cc2OC[C@H](C)NC[C@@H]1C
3.9	O=C(C[C@H]1C[C@@H]2c3cc(NC(=O)NC4CCCC4)ccc3O[C@@H]2[C@@H](CO)O1)NCc1ccc(Cl)cc1
-7.7	C[C@H]1CN([C@@H](C)CO)C(=O)Cc2cc(NS(=O)(=O)c3ccccc3)ccc2O[C@@H]1CN(C)Cc1ccc2c(c1)OCO2
-1.3	CO[C@@H]1CN(C)C(=O)c2ccc(NS(C)(=O)=O)cc2OC[C@@H](C)N(C(=O)C2CCC2)C[C@H]1C
-10.1	O=C(C[C@H]1CC[C@@H]2[C@H](COC[C@@H](O)CN2Cc2cccc(-c3ccncc3)c2)O1)N1CCCCC1
-8.5	Cc1noc(C)c1S(=O)(=O)Nc1ccc2c(c1)C(=O)N([C@H](C)CO)C[C@H](C)[C@H](CN(C)C(=O)NC1CCCCC1)O2

UUG fidelity	Compound
-2.7	N#Cc1cccc(-c2ccc3c(c2)[C@@H]2[C@@H](CCN2S(=O)(=O)c2ccccc2)[C@H](CO)N3)c1
-14.5	COc1ccccc1C(=O)Nc1ccc2c(c1)C(=O)N(C)[C@@H]1CC[C@H](CC(=O)NCc3ccc(Cl)c(Cl)c3)O[C@@H]1CO2
-18.3	CO[C@@H]1CN(C)C(=O)c2ccc(NC(=O)C3CCC3)cc2OC[C@@H](C)N(Cc2ccccn2)C[C@@H]1C
1.2	COc1cccc(-c2ccc([C@H]3[C@@H](CO)N4CCCCN(C(=O)c5ccc(F)cc5)C[C@@H]34)cc2)c1
26.1	C[C@H](O)C#Cc1ccc([C@H]2[C@@H](CO)N3CCCCN(CC4CC4)C[C@H]23)cc1
3.9	CCC(=O)N1C[C@H]2[C@@H](c3ccccc31)[C@@H](CO)N2C(=O)Nc1ccccc1
